gsp ag: qHTS for Agonist of gsp, the Etiologic Mutation Responsible for Fibrous Dysplasia/McCune-Albright Syndrome: qHTS. gsp mutant cells, cAMP HTRF, 30 min; control for the full effect not named in the record. Potency, µM (doses to about 76.9 µM), for the others: top-dose activation (cAMP increase), actives largely listed as activators. 0.13% of 340,000 active. AID 624287, 2012; active = well fitted activation curve with a large enough effect; inconclusive = small, poorly fitted or top-dose-only effect, or another doubt; inactive = no such curve, though single readings can be large or run the other way; cell line not stated here;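 further: phosphodiesterase inhibitor Ro 20-1724 added with compounds to block cAMP breakdown; potency means the concentration at half of the fitted maximal effect; nearly all actives have a fitted effect of over 60% in size; about a fifth of the inactives were tested at one dose only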
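Cells in DMEM/10% FBS with G418 were pretreated with compounds in DMSO plus […] (300 uM stock) for 30 min at 37C. cAMP was measured by HTRF (cAMP-d2 plus anti-cAMP antibody-K) after 30 min at room temperature.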
ClpP mod: qHTS Assay for Activators of ClpP; ATP-dependent Clp protease proteolytic subunit (Bacillus subtilis (strain 168)), P80244; purified B. subtilis ClpP, FRET peptide cleavage, 20 min; 1.9% of 340,000 active; Potency, µM (highest dose often 57.5 µM), for inactives: at the highest dose activity change, negative = active; active = well fitted falling curve with a large enough effect; inconclusive = small, poorly fitted or top-dose-only effect; inactive = no such curve, though single readings can be large or run the other way; further: potency means the concentration at half of the fitted maximal effect; the source files actives as falling curves though it sought activators and does not explain the sign; nearly all actives have a fitted effect of over 65% in size; many hits overshoot -100%
Target sequence (P80244 whole entry, looked up): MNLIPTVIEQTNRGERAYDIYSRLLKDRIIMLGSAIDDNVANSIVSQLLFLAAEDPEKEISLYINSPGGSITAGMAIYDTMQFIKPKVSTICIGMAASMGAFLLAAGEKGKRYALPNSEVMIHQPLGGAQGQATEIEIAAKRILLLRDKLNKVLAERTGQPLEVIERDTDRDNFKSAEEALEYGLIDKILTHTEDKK
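FRET quenching reversal measured ClpP activation: 10 microg/mL B. subtilis ClpP at pH 8 with the FRET-FV decapeptide, read at 430 nm after 320 nm excitation. The 20-min minus 0-min signal was scaled between DMSO/no-enzyme wells and ADEP (5.8 microM final).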
TRPV1 PAM: HTS Assay for Compounds that Act as Potentiators of the Vanilloid Receptor 1; potentiation, % at 8.33 µM; 0.02% of 320,000 active; Transient receptor potential cation channel subfamily V member 1 (Homo sapiens), Q8NER1; TRPV1-expressing cells, Fluo-8 calcium influx, capsaicin EC20 potentiation; host cell line not named in the record; control for the full effect not named in the record; active means potentiation above 80%; inconclusive means 30% to 80%; inactive means below 30%; further: 0% is about no effect
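Fluo-8 calcium influx in TRPV1-expressing cells, kinetic read (ex 480/em 520 nm). Compound added and read 3 min for agonist activity, followed by capsaicin at EC20 final and 2 min further read for enhancement.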
Menin MLL FP FL: qHTS Assay for Inhibitors Targeting the Menin-MLL Interaction in MLL Related Leukemias: Competition With Fluorescein Labeled MLL-derived Peptide | Fluorescence polarization, fluorescein-MLL peptide displacement from menin | FP activity change, % at 61.4 µM | 290,000 tested, under 10 active | AID 1766, 2009; inconclusive = falling polarisation curve, or a change in total fluorescence; inactive = total fluorescence flat and polarisation flat or rising; no compound was filed as active; the % refers to the polarisation; negative = inhibition;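 further: % of control where 0% means no effect; inhibitors lower the polarisation; unlabelled MLL peptide was the positive control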
TRPML1 inh: qHTS for Inhibitors of the Human Mucolipin Transient Receptor Potential 1 (TRPML1) | AID 624415, 2012 | TRPML1-inducible cells, Ca2+ dye fluorescence, FDSS; active compounds read low; inhibition of EC80 agonist-evoked calcium signal | 0.02% of 390,000 active | Mucolipin-1 (Homo sapiens), Q9GZU1 | activity change, negative = inhibition, % (test concentration not listed); in the data active means activity change below about -50%; inconclusive means about -30% to -50%; inactive means above about -30%;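 further: stimulus is agonist 54-4 at its EC80 concentration; on the % scale 0 is the no-effect control and ±100 the full control effect; compound concentration not given in the record; the text of the record puts the active cut at -80%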
Target sequence (Q9GZU1 whole entry, looked up): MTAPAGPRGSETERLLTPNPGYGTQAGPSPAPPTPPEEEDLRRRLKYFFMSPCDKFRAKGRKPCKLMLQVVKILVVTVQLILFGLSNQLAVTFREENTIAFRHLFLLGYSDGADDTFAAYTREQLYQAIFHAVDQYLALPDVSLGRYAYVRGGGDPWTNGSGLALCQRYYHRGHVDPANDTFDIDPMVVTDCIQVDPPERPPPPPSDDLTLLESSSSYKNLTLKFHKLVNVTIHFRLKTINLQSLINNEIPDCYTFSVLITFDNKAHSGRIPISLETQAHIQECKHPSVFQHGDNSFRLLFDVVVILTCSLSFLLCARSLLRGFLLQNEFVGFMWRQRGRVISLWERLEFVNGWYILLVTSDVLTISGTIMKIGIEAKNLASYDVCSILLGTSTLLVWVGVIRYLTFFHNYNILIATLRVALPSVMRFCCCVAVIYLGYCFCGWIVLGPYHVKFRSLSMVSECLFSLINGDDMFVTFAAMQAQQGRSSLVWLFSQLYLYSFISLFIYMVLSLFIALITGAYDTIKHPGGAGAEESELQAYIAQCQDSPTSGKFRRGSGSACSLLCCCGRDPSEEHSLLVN
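TRPML1-DL cells, Tet-induced overnight (~16 h, 37 °C) at 1,500 cells/well, were loaded with Ca8 no-wash dye plus quencher for 45-90 min at room temperature. Compounds were pinned during FDSS kinetic reading; agonist 54-4 at EC80 (4 uM final) then added.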
gsp antag: qHTS for Antagonists of gsp, the Etiologic Mutation Responsible for Fibrous Dysplasia/McCune-Albright Syndrome: qHTS. AID 624288, 2012. Potency, µM (highest dose often 76.9 µM), for the others: at the highest dose activity change, negative = inhibition, actives largely listed as inhibitors. 0.4% of 340,000 active. gsp-mutant cells, cAMP HTRF, 30 min; control for the full effect not named in the record; active = falling curve of any shape with a large fitted effect; inconclusive = falling curve, mostly with a smaller effect; inactive = flat or rising curve; cell line not stated here;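 further: intracellular cAMP measured with PDE inhibitor Ro 20-1724 present during compound exposure; potency means the concentration at half of the fitted maximal effect; on the % scale 0 is the no-effect control and ±100 the full control effect; nearly all actives have a fitted effect of over 65% in size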
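Measurement of cellular cAMP by homogeneous time-resolved fluorescence following a 30 min compound exposure at 37C. The PDE inhibitor […] was present throughout; the assay buffer was DPBS with 0.05% BSA and 0.005% Tween 20.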
Sfp inh: qHTS Assay for Inhibitors of Bacillus subtilis Sfp phosphopantetheinyl transferase (PPTase); 4'-phosphopantetheinyl transferase ffp (Bacillus subtilis), Q9F4F7; Biochemical Sfp PPTase activity, qHTS; Potency, µM, without a hit: max response, negative = inhibition, actives largely listed as inhibitors; 3.5% of 310,000 active; active means well fitted inhibition curve with a large enough effect; inconclusive means small, poorly fitted or top-dose-only effect, or another doubt; inactive means no such curve, though single readings can be large or run the other way;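 further: the enzyme is Sfp with the accession as filed and its product quenches rhodamine fluorescence; potency means the concentration at half of the fitted maximal effect; 0% = enzyme reaction without inhibitor and -100% = no enzyme wells; top concentration of the series not given in the record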
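Compounds were incubated with enzyme (final 15 nM) for 15 min at room temperature before substrate addition started the reaction. Fluorescence at 525 nm excitation, 598 nm emission was recorded immediately and after 30 minutes.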
* marks the source's active call; other numbers are inactive results; ? = inconclusive; · = not tested or not shown; [ ] = dose if it differs, or a comment.

SMILES	gsp ag	ClpP mod	TRPV1 PAM	Menin MLL FP FL	TRPML1 inh	gsp antag	Sfp inh
Cc1ccc(NC2CCCN(C(=O)c3ccc(C)c(N4CCNC4=O)c3)C2)cc1C (centres undefined)	-38%[inhibitor]	-3.3%	-11	·	-14	-4%	11%
COc1cccc(/C=C/c2ccc3cccc(O)c3n2)c1	1%	·	10	6.6	-10	0%	?
O=C(COC(=O)c1ccc2ncsc2c1)Nc1cc(Cl)ccc1F	?	1.6%	2	·	-13	4%	·
CC1CCN(C(=O)COC(=O)c2cccs2)CC1	-12%[15.4 µM]	-0.5%	·	·	15	3%	·
CCOc1ccccc1NC(=O)N1CCc2ccccc2C1	29%	-1.6%	-16	·	20	-2%	8%
COc1cccc(-c2nnc(-c3ccccc3NC(=O)c3ccc(C(C)(C)C)cc3)o2)c1	18%	·	·	0.5	17	12%	18%
CC(=O)Nc1cccc(NC(=O)c2ccc(C)c([N+](=O)[O-])c2)c1	-4%[15.4 µM]	·	-9	-0.8	-14	-4%	7%
CCOC(=O)c1c(-c2ccc(C)o2)csc1NC(=O)CSc1ncn[nH]1	8%	-2.6%	-3	0.6	9	?	28µM*
O=C1NC(Cc2c[nH]c3ccccc23)C(=O)N1Cc1ccc(CN2C(=O)NC(Cc3c[nH]c4ccccc34)C2=O)cc1 (centres undefined)	5%	-4.7%	?	14	-14	-11%	11%
COc1ccc(CCCC(=O)Nc2cc(C)ccc2OC)cc1	?	0.4%	-16	0.8	12	2%	-6%
O=C(NN=Cc1ccc([N+](=O)[O-])cc1)C1CC1	4%[15.4 µM]	1.0%	·	·	24	6%	·
COC(=O)c1cc(NC(=O)CN2CCOCC2)cc(C(=O)OC)c1	?	-29%	0	3.1	28	5%	15%
COc1cc(/C=C/C(=O)OCC(=O)NCCc2ccc(S(N)(=O)=O)cc2)ccc1OCC#N	2%[15.4 µM]	·	5	·	1	4%	·
COc1ccccc1NC(=O)C1CC(=O)OC1c1ccccc1 (centres undefined)	6%	-2.1%	0	-0.7	8	7%	17%
Cc1ccccc1-c1nc(CN2CCC(C(=O)N3CCN(c4ccccn4)CC3)CC2)c(C)o1	?	4.2%	1	3.5	-5	2%	21%
CC1(c2ccccc2)NC(=O)N(CC(=O)N2CC(=O)Nc3ccccc32)C1=O (centres undefined)	6%	·	·	·	-6	-3%	·
COC(=O)c1cc(=O)n(Cc2cccs2)c(=Nc2ccccc2)s1	11%	-3.6%	21	2.8	5	0%	-11%
Cc1ccc(C#N)c(SCC(=O)Nc2nccs2)n1	?	-19%	4	2.6	3	3%	4%
COc1ccc(S(=O)(=O)N2CCC(C(=O)NC3CCCCC3)CC2)cc1C	-2%[15.4 µM]	·	-10	-0.2	50	-19%	-1%
COc1ccc(CN2CCCC(C(=O)c3cccc(C(F)(F)F)c3)C2)cc1O (centres undefined)	-5%	·	-9	-4.8	11	3%	-4%
C/C(=N\NC(=O)c1cc(C)[nH]n1)c1cccs1	-13%[15.4 µM]	·	12	-2.3	5	·	20%
Cc1c(C(=O)/C=C/N(C)C)nnn1-c1ccc(Cl)cc1C#N	6%[15.4 µM]	·	10	11	8	3%	15%
COc1cccc(C(=O)NCc2ccc3c(c2)cc(C)n3C)c1	?	0.5%	-7	?	6	3%	9%
O=C(O)CSc1nnc(-c2cccs2)n1-c1ccc(Cl)cc1	-9%	-18%	9	0.3	-11	-3%	26%
CCCCN(C(=O)c1ccc(-c2ccc(Cl)cc2)o1)c1c(N)n(CC(C)C)c(=O)[nH]c1=O	18%	4.0%	3	·	-2	6%	·
Cc1ccc(N2CCN(/N=C/c3sccc3C)CC2)cc1	-10%	-0.7%	-2	?	-11	-1%	11%
Clc1ccc(Cn2ccc3ccccc32)cn1	26%	1.2%	-14	-1.4	5	-1%	7%
CCN(CCCNS(=O)(=O)c1cc(-c2cc(C)no2)ccc1C)Cc1ccccc1	?	0.4%	-5	-2.8	-11	-2%	8%
COc1ccccc1NC(=O)NNC(=O)CN1C(=O)COc2ccccc21	18%[15.4 µM]	·	3	-3.8	4	9%	-6%
O=C(Nc1c(F)c(F)c(F)c(F)c1F)c1ccc(Br)o1	-46%[inhibitor]	-0.9%	·	·	-10	·	·
C=CC[C@@H](Cc1ccc(F)cc1)C(=O)OC[C@@H]1CCCN1C(=O)[C@@H](CC=C)CC(=O)N(CCO)Cc1ccccc1	·	0.7%	·	·	-1	-25%	·
Cc1scc(C(=O)N/N=C/c2ccsc2)c1C	-2%	-0.3%	-12	5.1	7	3%	5%
CCCC(=O)Nc1ccc(Cl)c(NC(=S)NC(=O)c2ccco2)c1	-12%	1.7%	6	3.5	2	-13%	3%
CC1C(=O)N(Cc2cn(CCC3OCCCO3)nn2)CCS(=O)(=O)N1Cc1ccc(-c2ccc(Cl)nc2)cc1 (centres undefined)	?	0.5%	·	·	7	·	·
O=C(NCc1ccccn1)c1cc(S(=O)(=O)N2CCN(c3ccccc3)CC2)ccc1Cl	?	-0.7%	1	0.4	23	-3%	-10%
O=C(NC1CCCCC1)c1csnn1	1%	0.8%	·	·	1	-11%	·
COc1cccc(-c2nnn(C/C(N)=N/O)n2)c1	4%	1.3%	-13	3.6	-25	6%	6%
COc1ccc(/C=C/C2=NN(Cc3ccccc3)C(=O)CC2)cc1	-1%	·	-6	-0.6	16	-22%	-4%
CSc1ncccc1C(=O)OCC(=O)N(CC(C)C)c1c(N)n(Cc2ccccc2)c(=O)[nH]c1=O	-5%	1.8%	-1	·	1	-2%	4%
CCCOc1ccc(S(=O)(=O)N2C(=O)CC(=O)N(Cc3ccc(OCC)cc3)C2=O)cc1	7%[15.4 µM]	·	·	22	33	3%	-3%
O=C(COc1ccccc1)NC1CCN(Cc2ccccc2)CC1	-48%[inhibitor]	-16%	0	2.0	-5	8%	20%
COc1ccc(CNC(=O)CN2C(=O)C3C4C=CC(C4)C3C2=O)cc1 (centres undefined)	-21%	-0.9%	-18	0.0	11	10%	9%
Cc1[nH]n(-c2ccccc2)c(=O)c1S(=O)(=O)c1ccccc1	-2%	-3.3%	1	2.0	6	-3%	-7%
CCN(C[C@H]1N[C@@](CC)(C(=O)OC)[C@H]2C(=O)N(Cc3ccccc3)C(=O)[C@@H]12)C(=O)c1ccc(F)cc1	·	0.6%	·	·	23	-11%	·
Cc1ccc(C)c(C(=O)OCC(=O)NC(=O)NCc2ccccc2)c1	?	4.8%	·	·	3	·	·
CCOc1ccc(Cl)cc1S(=O)(=O)N1CCC(C(=O)NCC2CCCO2)CC1 (centres undefined)	1%	·	-5	-1.0	-6	10%	13%
COc1ccc(C2C(C(=O)NCC3CCCO3)CCC(=O)N2c2ccc3c(c2)OCO3)cc1 (centres undefined)	-1%	-0.9%	-1	2.0	-4	-3%	16%
Cc1ccc(-c2ocnc2C(=O)Nc2nc(C)cs2)cc1	1%[15.4 µM]	?	1	5.9	0	-16%	16%
Nc1nc(Cl)cc(Oc2ccc([N+](=O)[O-])cc2)n1	14%	1.0%	-8	4.2	2	7%	-15%
CCN(CC(=O)NCc1ccc(Cl)cc1)C(=O)c1cc2ccccc2o1	-3%[15.4 µM]	-1.1%	-20	4.0	4	0%	11%
COc1cccc(C2NC(CC(C)C)(C(=O)O)C3C(=O)N(Cc4ccccc4)C(=O)C23)c1O (centres undefined)	-4%	5.3%	0	-1.9	-7	6%	-8%
O=C(c1cc(COc2ccc(F)cc2Cl)on1)N1CCN(C2CCCCC2)C(=O)C1	22%	0.5%	-3	·	-12	-11%	-9%
FC(F)(F)c1cccc(CNC2CCN(Cc3ccccc3)CC2)c1	-1%[15.4 µM]	-1.1%	-7	1.6	6	9%	10%
CC(CN1CCCCC1)OC(=O)c1ccccc1Cl (centres undefined)	0%	2.5%	-7	2.6	-16	-3%	-7%
O=C(C1=C[C@@H](c2ccc(Br)cc2)C[C@@H](OCCCCO)O1)N1CCOCC1	·	-0.8%	-2	-2.6	13	-3%	19%
CC1CCN(CCNC(=O)C2CCCN(c3ncnc4c3nc3n4CCCCC3)C2)CC1 (centres undefined)	-2%	-0.1%	8	·	-5	-14%	3%
O=C(Nc1ccc(Cl)cc1)C1CCCN(C2=NS(=O)(=O)c3ccccc32)C1 (centres undefined)	?	1.2%	16	·	4	-15%	·
O=C(CC1OC(=O)c2ccccc21)Nc1cccc(S(=O)(=O)N2CCCCCC2)c1 (centres undefined)	0%[15.4 µM]	108%	4	·	-5	-7%	3%
O=C1CCC(=O)N1c1cccc(-c2nc3ccccc3o2)c1	5%	?	-7	-0.9	-16	9%	-3%
O=C(c1c(Cl)nc2sccn12)N1CCCc2ccccc21	-17%	0.3%	9	-0.1	-19	-8%	?
CCS(=O)(=O)c1ccc(O)c(N2C(=O)C3C4C=CC(C4)C3C2=O)c1 (centres undefined)	-22%	-1.8%	22	-2.2	-6	2%	14%
COc1cc(C2c3c([nH]c(=O)[nH]c3=O)Nc3ccc4ccccc4c32)cc(OC)c1OC (centres undefined)	0%[15.4 µM]	·	9	8.4	3	6%	56µM*
O=C(NC(=S)Nc1cccc(-c2ccc(CO)o2)c1)c1cccs1	-27%	-0.9%	20	0.8	14	-18%	-28%

From PubChem BioAssay

No enrichment for hits; overall some 4.9% were active at least once.
